HPGD block – HPGD (human) dehydrogenase inhibition; P15428; 4.3% of 150,000 active; purified HPGD, NADH fluorescence kinetic, PGE2 substrate; Potency, µM, for the others: top-dose activity change, negative = inhibition, actives largely listed as inhibitors; AID 894; active = well fitted inhibition curve with a large enough effect (not every such curve was filed as active); inconclusive = small, poorly fitted or top-dose-only effect, or another doubt; inactive = no such curve, though single readings can be large or run the other way;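 further: top concentration of the series not given in the record; plate controls included wells without enzyme; inactives centre near -10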
Target sequence (P15428 whole entry, looked up): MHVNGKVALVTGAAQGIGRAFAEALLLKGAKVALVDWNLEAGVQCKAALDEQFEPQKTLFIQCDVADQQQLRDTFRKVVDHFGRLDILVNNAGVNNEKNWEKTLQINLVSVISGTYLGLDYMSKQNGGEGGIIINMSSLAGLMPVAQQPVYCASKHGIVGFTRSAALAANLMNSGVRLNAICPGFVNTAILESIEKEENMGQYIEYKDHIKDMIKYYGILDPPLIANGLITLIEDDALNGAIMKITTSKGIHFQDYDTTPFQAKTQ
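20 nM HPGD preincubated 15 min at room temperature with compound in 50 mM Tris-HCl pH 8, 0.01% Tween 20. Started with 1 mM NAD+ and 30 uM prostaglandin E2; NADH fluorescence (360/450 nm) read 5 times over 30-s intervals, last minus first.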
The depositor's hits bear a star; ? = inconclusive; & = joins results of further samples. On the % scale 0 is the no-effect control and ±100 the full control effect; potency means the concentration at half of the fitted maximal effect. Some of the compounds tested, so the mix of outcomes need not match the whole.

entry	HPGD block	compound
1	-12%	CCCCCCNC(=O)c1c(O)c2ccccc2[nH]c1=O
2	-7%	Cn1c(=S)[nH]c2cccnc21
3	-6%	Cc1cc(C)n(C(=O)CN2C(=O)c3ccccc3C2=O)n1
4	-19%	O=c1cc(CSc2nc3cc(Cl)ccc3o2)nc2sccn12
5	-10%	O=C(NCCn1ccc2ccccc21)C1CCCCC1
6	-2%	CC(=O)OC1CC2C(C)(C)CCC(=O)[C@@]2(C)C2CC[C@@]3(C)C(c4ccoc4)OC(=O)C4OC43[C@]12C (some centres not stated)
7	-10%	CCOC(=O)Cc1csc(NC(=S)NC(=O)c2ccccc2C)n1
8	-20%&-20%	O=C(Nc1ccccc1)c1cc([N+](=O)[O-])ccc1Cl
9	-8%	O=C(Cn1ncc(Cl)c(Cl)c1=O)c1ccc(Cl)cc1
10	1%	CC12CS(=O)(=O)CC1SC(=S)N2c1ccccn1 (configuration not stated)
11	-12%	Cc1ccccc1-n1c(SCc2c(C)noc2C)nnc1-c1ccncc1
12	-20%	COc1ccc(CN2C(=O)/C(=C/c3ccncc3)SC2=S)cc1

New compounds follow:
entry	HPGD block	compound
13	-24%	Cc1cc(/C=N/n2cnnc2)c(C)n1-c1cc(Cl)ccc1Cl
14	-12%	CCN(CC)c1ccc(C=C2C(=O)OC(C)(C(C)(C)C)OC2=O)cc1 (configuration not stated)
15	-19%	CC(C)CCNc1nc(N)c([N+](=O)[O-])c(NCC2CCCO2)n1 (configuration not stated)
16	-24%	CC(C)Sc1ncnc2c1oc1ccccc12
17	-22%	O=C(/C=C/c1cccc([N+](=O)[O-])c1)NCCSCc1ccccc1Cl
18	-7%	CC1CN(C2CCN(C(=O)c3ccccc3Cl)CC2)CC(C)O1 (configuration not stated)
19	-5%	CCCCCC1OC1C/C=C\C/C=C\C/C=C\CCCC(=O)O (configuration not stated)
20	?	COc1ccc(-c2cc(C(F)(F)F)n3nc(C(=O)NCc4ccco4)cc3n2)cc1
21	-9%	CC(C)CC1NC(=O)C(CCCN)NC(=O)C(C(C)C)NC(=O)C2CCCN2C(=O)C(Cc2ccccc2)NC(=O)C(CC(C)C)NC(=O)C(CCCN)NC(=O)C(C(C)C)NC(=O)C2CCCN2C(=O)C(Cc2ccccc2)NC1=O (configuration not stated)
22	-6%	CCn1c(CSCc2ccc(F)cc2)nnc1SCC(=O)NCc1ccccc1
23	-7%	COc1ccc(C(=O)NCc2nnc(SCC(=O)N3CCc4ccccc43)n2CCc2ccccc2)cc1
24	?	C=CCNC(=O)CCCOc1cccc(C)c1

Part of the list above in a different format:
# | SMILES | HPGD block
23 | COc1ccc(C(=O)NCc2nnc(SCC(=O)N3CCc4ccccc43)n2CCc2ccccc2)cc1 | -7%
19 | CCCCCC1OC1C/C=C\C/C=C\C/C=C\CCCC(=O)O (configuration not stated) | -5%

Additional compounds:
entry	HPGD block	compound
25	-10%&0%	CC(C)=CCCC(C)CCO (configuration not stated)
26	-3%	Cc1nn(-c2cc(N3CCCC3)ccc2[N+](=O)[O-])c(=O)c2ccccc12
27	-6%	O=C(O)c1c(-c2c3ccc(=O)cc-3oc3cc(O)ccc23)cc2ccccc2c1-c1ccccc1
28	?	Cc1cc(N2CCOCC2)nc2ccc(NC(=O)CCC(=O)N3CCCCC3)cc12
29	-7%	CC(C)C(=O)Nc1nnc(SCC(=O)N2c3ccccc3CC2C)s1 (configuration not stated)
30	2%	O=C(CSc1nc2ccc(Cl)cc2[nH]1)NC1CCCc2ccccc21 (configuration not stated)
31	-15%	COc1ccc(N2C(=O)/C(=C/c3cccnc3)NC2=S)cc1
32	-13%	CC(C)Cc1nnc(NC(=O)c2ccncc2)s1
33	-8%	NC(=O)CSc1nnc(-c2cnccn2)n1-c1ccccc1
34	-5%	Cc1cc(C)nc(SCC(=O)Nc2ncc(Cc3ccc(Cl)c(Cl)c3)s2)n1
35	-19%	CCc1c(C)sc2nc(C(C)C)nc(SCC(=O)N3CCc4ccccc4C3)c12
36	-10%	Cc1ccc(C)n1-c1ccc(-n2cnnn2)cc1

(next part)
entry	HPGD block	compound
37	-13%	Cc1ccccc1NC(=O)CSc1nnnn1C
38	-16%	COc1cccc(OCc2nnc(SCC(=O)OC3CCCCC3)n2C)c1
39	-15%	C=C(C)c1cccc(C(C)(C)NC(=O)NCCCN2CCCC2=O)c1
40	-7%	CN(NC(=O)c1cccc(Cl)c1)c1nc(-c2ccccc2)nnc1C(F)(F)F
41	-4%	COc1ccccc1-c1noc(-c2ccccc2C(=O)Nc2ccccc2)n1
42	-7%	COc1ccc(/C=N/N2C(=O)c3ccccc3C2=O)cc1
43	-27%	c1ccc(C(Cc2nc(-c3ccccn3)no2)c2ccccc2)cc1
44	?	COC(=O)c1ccc(S(=O)(=O)NCCSc2nnc3c4ccccc4n(C)c3n2)cc1
45	-1%	S=C(Nc1ccc(Cl)c(Cl)c1)N1CCOCC1
46	-5%	Cc1nc(Sc2nnnn2-c2ccccc2)c(C#N)c(C)c1C
47	-28%	Clc1ccc(CSc2ncccn2)cc1
48	-18%	O=C(CCN1C(=O)C2CC=C(Cl)CC2C1=O)NCc1ccco1 (configuration not stated)

More compounds follow.
entry	HPGD block	compound
49	-8%	CC1CCCC(NC(=O)COC(=O)c2cc(S(=O)(=O)N3CCCCC3)ccc2N2CCOCC2)C1C (configuration not stated)
50	-2%	C=CCCCCCCCCC(=O)NNC1=CC(=O)CC(C)(C)C1
51	-10%	Cc1cc2cc(CN(Cc3cccs3)S(=O)(=O)c3ccc4c(c3)OCCO4)c(=O)[nH]c2cc1C
52	-10%	CCCC(c1nnnn1Cc1ccco1)N1CCN(C(=O)c2ccco2)CC1 (configuration not stated)
53	?	COc1ccc(N2C(=O)c3cccc4cccc(c34)C2=O)nn1
54	-2%	O=C(CNC(=O)c1cccs1)NCCN1CCN(c2ccccc2F)CC1
55	14µM*	CN(Cc1ccccc1)C(=O)c1ccc2c(c1)OCCO2
56	-2%	O=C(O)/C=C/C(=O)NNC(=O)c1cccc(Br)c1
57	-2%	COc1ccc(C(OC(=O)c2cccs2)C(=O)NCC2CCCO2)cc1 (configuration not stated)
58	-4%	CC(C)CC(C(=O)O)N(Cc1ccccc1)Cc1ccccc1 (configuration not stated)
59	-10%	C=C(C)CN=c1scc(C)n1/N=C/c1ccco1
60	-13%	O=C(O)c1ccc(CNCc2ccccc2)cc1

Remaining list, next part
entry	HPGD block	compound
61	2%	O=C(CN(C(=O)CNS(=O)(=O)c1ccccc1)C1CCCC1)NCc1ccco1
62	-17%	COc1ccc(-c2cc(C(F)(F)F)c3c(=O)n(-c4ccccc4)[nH]c3n2)cc1
63	-3%	O=C(c1ccc2ccccc2c1)N1CCN(c2ccccc2)CC1
64	-6%	O=C(O)c1cc(S(=O)(=O)N2CCCC2)ccc1Br
65	-24%	CC(C)CN(C(=O)COC(=O)c1cc2ccccc2oc1=O)C1CCS(=O)(=O)C1 (configuration not stated)
66	-14%	NC(=O)C1(NC(=O)[C@@H]2CC3(CC(c4cccc(NC(=O)[C@@H]5CCC(=O)N5)c4)=NO3)CN2C(=O)Cc2ccc(C(F)(F)F)cc2)CC1 (some centres not stated)
67	-11%	CCc1cccc(NS(=O)(=O)c2c(C)n[nH]c2C)c1
68	-4%	CCn1c(C(O)c2ccccc2)nc2ccccc21 (configuration not stated)
69	-15%	CCCC(=O)Nc1ccc(Br)cn1
70	-11%	Cc1c(C(=O)N2CCCc3ccccc32)oc2ccc(S(=O)(=O)N3CCOCC3)cc12
71	-8%	Cc1ccc(-c2cc(C(=O)NCc3cccs3)no2)cc1
72	-2%	O=C(COC(=O)CCC(=O)c1ccc(Cl)cc1)NCC1CCCO1 (configuration not stated)

Along the list, as entered above:
HPGD block, nos. 62 to 71 → -17%, -3%, -6%, -24%, -14%, -11%, -4%, -15%, -11%, -8%

(more compounds)
entry	HPGD block	compound
73	-1%	COCCCNC(=O)C1CC(=O)N(c2ccc(C)cc2)C1 (configuration not stated)
74	-15%	O=C(NC1CCCCC1)C1CC(=O)N(c2ccc(Cl)cc2)C1 (configuration not stated)
75	-15%	Cc1ccc(-c2nc(CSCC(=O)N3CCN(C(=O)c4ccco4)CC3)c(C)o2)cc1
76	2.2µM*	Cc1ccc(NC(=O)Cn2cccc2)c(C)c1
77	-8%	CCOc1cccc(OCCOc2ccc(C(=O)c3ccccc3)cc2)c1
78	-5%	O=C(Nc1ccc(Br)cc1)c1ccco1
79	-3%	CCCOc1ccc(CC(CC(=O)O)(C(=O)O)C(=O)O)cc1
80	-2%	O=C(NCc1ccncc1)c1cccc(F)c1
81	-4%	O=C(Nc1ccc(OC(F)F)c(Cl)c1)C(c1ccccc1)c1ccccc1
82	-21%	Cc1ccc(Nc2ccc(C(N)=O)cc2[N+](=O)[O-])cc1C
83	?	O=C(O)c1ccc(Cl)c2c1C1C=CCC1C(c1ccccn1)N2 (configuration not stated)
84	-17%	C=C1CC(C(=O)N/N=C/c2ccc(O)cc2)C1

Four of the compounds above, field by field:
[75] Cc1ccc(-c2nc(CSCC(=O)N3CCN(C(=O)c4ccco4)CC3)c(C)o2)cc1
- HPGD block: -15%

[76] Cc1ccc(NC(=O)Cn2cccc2)c(C)c1
- HPGD block: 2.2µM*

[77] CCOc1cccc(OCCOc2ccc(C(=O)c3ccccc3)cc2)c1
- HPGD block: -8%

[83] O=C(O)c1ccc(Cl)c2c1C1C=CCC1C(c1ccccn1)N2 (configuration not stated)
- HPGD block: ?

Continued:
entry	HPGD block	compound
85	?	Cc1ccc(C)c(S(=O)(=O)Nc2ccccc2C(=O)Nc2cc(C)on2)c1
86	-6%	Cn1c(SCC(N)=O)nnc1-c1ccccc1
87	-18%	O=[N+]([O-])c1ccccc1/C=N/NC1=NCCCCC1
88	-6%	O=S(=O)(CC12C3C4C5C1C2C(Br)(C43)C51OCCO1)c1ccccc1 (configuration not stated)
89	-6%	COc1ccc(-n2c(=S)[nH]c3cc(C(=O)NCCCN4CCCC4=O)ccc3c2=O)cc1OC
90	-8%	CCCC1CCC(=NNC(=O)OC(C)(C)C)CC1 (configuration not stated)
91	?	CCOC(=O)c1[nH]nc(N)c1NC(=O)c1ccc(Cl)cc1Cl
92	-7%	O=C(COC(=O)c1cc(S(=O)(=O)N2CCCCC2)ccc1N1CCOCC1)NC1CCCCC1
93	-14%	O=C(O)C(Oc1ccc2ccc(=O)oc2c1)c1ccccc1 (configuration not stated)
94	-8%	O=C(COC(=O)c1ccc2ncsc2c1)Nc1ncc(Cl)cc1Cl
95	-2%	CSc1nc2c(c(=O)n1-c1ccc(F)cc1)SCC2
96	-9%	COC(=O)CC[C@@H](C)[C@@H]1CC[C@@H]2[C@@H]3CC[C@H]4C[C@@H](O)CC[C@@]4(C)[C@@H]3CC[C@]21C

Entries listed so far printed as active in HPGD block.
entry	HPGD block	compound
55	14µM*	CN(Cc1ccccc1)C(=O)c1ccc2c(c1)OCCO2
76	2.2µM*	Cc1ccc(NC(=O)Cn2cccc2)c(C)c1

Following part.
entry	HPGD block	compound
97	-1%	CCC1Oc2ccccc2N(CC(=O)NCCCN2CCCCC2CC)C1=O (configuration not stated)
98	?	Cc1ccccc1-c1nnc(-c2ccccc2)o1
99	?	CC(=O)N(C(C)=O)c1ncc2c([nH]c3ccccc32)c1C#N
100	-1%	CCCCC(O)(CCN1CCOCC1)c1ccc(Cl)cc1 (configuration not stated)
101	?	Cc1ccc(NC(=O)COC(=O)c2ccc3c(c2)NC(=O)C2CCCN32)cc1C (configuration not stated)
102	-26%	O=C(Nc1cccc(O)c1)c1noc2c1CCCCC2
103	-8%	CC1CCN(S(=O)(=O)c2cccc(C(=O)N(C)C3CCS(=O)(=O)C3)c2)CC1 (configuration not stated)
104	-14%	Cc1[nH]c2ccc(C(=O)OCCN(C)C)cc2c1C
105	-12%&-3%	Nc1ccc(C(=O)NCC(=O)O)cc1
106	-7%	CCCCn1c(CCC(=O)O)nc2c1c(=O)[nH]c(=O)n2CCC
107	-11%	N=c1sccn1CC(=O)NCCc1ccc(Cl)cc1
108	-11%	COc1ccc(C2C(C#N)=C(N)Oc3cc(C)n(Cc4ccncc4)c(=O)c32)cc1 (configuration not stated)

Carrying on.
entry	HPGD block	compound
109	-3%	O=C(COc1ccc([N+](=O)[O-])cc1)N(Cc1ccccc1)Cc1ccccc1
110	-6%	COC(=O)c1cc(NC2c3ncccc3C(=O)N2Cc2ccccc2)cc(C(=O)OC)c1 (configuration not stated)
111	-6%	CCOc1ccc(NC(=O)N2CCC(C(=O)c3ccc(F)cc3)CC2)cc1
112	-10%	O=C(/C=C/c1cccc([N+](=O)[O-])c1)NCCSc1ccccc1
113	0%	O=Cc1cn(CC(=O)N2CCOCC2)c2ccccc12
114	-12%	Cc1ccccc1C(=O)NN1CCOCC1
115	-12%	COc1ccc(Nc2cc(C(=O)NCc3ccco3)c3ccccc3n2)c(OC)c1
116	-10%	CN(C1CCS(=O)(=O)C1)S(=O)C12CC3CC(CC(C3)C1)C2 (configuration not stated)
117	-14%	COCCCNC(=O)CCSc1ccc(Cl)cc1
118	-2%	Cc1cc(C)nc(NC(=O)CCC2CCCC2)c1
119	-8%	CCCCn1cnc2c1c(=O)n(CC(=O)c1cc(C)n(C)c1C)c(=O)n2CC(C)C
120	-8%	O=C(Nc1ccc(Cl)cc1C(F)(F)F)c1ccc(Cl)cc1

Carrying on:
entry	HPGD block	compound
121	-5%	Cc1cc(C)nc(SCc2cc(=O)c(OC(=O)c3ccc(Br)o3)co2)n1
122	?	NC(=O)c1c(NC(=O)c2cccnc2Cl)sc2c1CCCC2
123	-7%	Cc1ccc(S(=O)(=O)N2C(=O)CCC2C(=O)Nc2ccc3c(c2)OCCO3)cc1 (configuration not stated)
124	-14%	C[C@@H]1CCC2[C@@H](C)[C@@H](O)O[C@@H]3O[C@@]4(C)CC[C@@H]1[C@@]23OO4 (some centres not stated)
125	-7%	Cc1cc([N+](=O)[O-])nn1CC(=O)Nc1nccs1
126	-4%	CCC1(O)c2ccccc2-c2ncccc21 (configuration not stated)

Assay outcomes: PubChem, National Center for Advancing Translational Sciences (NCATS)
